# High-throughput results deposited in PubChem BioAssay by several laboratories.
# Vif TR-FRET: inhibitors of Vif binding to APOBEC3G peptide, primary screen, biochemical, TR-FRET, GST-Vif 1-94, biotin-A3G peptide, dose response retest (AID 1117319); Virion infectivity factor (Human immunodeficiency virus type 1 group M subtype B (isolate …; TR-FRET GST-Vif / biotin-A3G peptide binding; higher % means a stronger effect; test concentration not given here; strong numbers were not always called active; inhibition, %, or IC50 in µM where a hit was titrated; 0.57% of 260,000 active;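 active = above the screen mean plus three standard deviations and confirmed in dose response; inconclusive = results disagree or hit not tested in dose response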;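 note: Vif residues 1-94 fused to GST binding biotinylated APOBEC3G peptide 110-148; 0% = full assay without inhibitor and 100% = GST in place of GST-Vif; retest series ran down from 100 µM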
# FGF22 binding: binders of human FGF22 protein, primary screen, FGF22 synaptogenesis inhibitor project, biophysical, thermal shift, single point | Fibroblast growth factor 22 (Homo sapiens), Q9HCT0 | recombinant FGF22 thermal shift, SYPRO orange fluorescence; percent of sucrose octasulfate shift, DMSO zero | calls only at 9.99 µM | 1.5% of 340,000 active | AID 651658, 2012;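 active = melting point raised past a set limit in the mean and every replicate; inconclusive = no clear call; three in four hits are not shown here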
# Target sequence (Q9HCT0 whole entry, looked up): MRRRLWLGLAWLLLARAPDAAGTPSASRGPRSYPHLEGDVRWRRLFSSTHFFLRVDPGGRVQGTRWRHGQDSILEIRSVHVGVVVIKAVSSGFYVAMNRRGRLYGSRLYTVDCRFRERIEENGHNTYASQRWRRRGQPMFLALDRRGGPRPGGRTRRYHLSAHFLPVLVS
# HNF4A DNA FP: change in binding of human HNF4A to DNA, primary screen, biochemical, fluorescence polarization, FITC-DNA | Hepatocyte nuclear factor 4-alpha (Homo sapiens), P41235 | 1 h | activity change, % at 10 µM | 0.3% of 360,000 active | AID 1224865, 2016; in the data active = activity change above about 30%, passing the limit was not always enough;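 note: controls were the assay level and a saturating level of protein; the project sought stronger binding though the title names inhibitors; some compounds called inactive have numbers as strong as hits; positive values seem to mean higher polarization but the record does not say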
# Target sequence (P41235 whole entry, looked up): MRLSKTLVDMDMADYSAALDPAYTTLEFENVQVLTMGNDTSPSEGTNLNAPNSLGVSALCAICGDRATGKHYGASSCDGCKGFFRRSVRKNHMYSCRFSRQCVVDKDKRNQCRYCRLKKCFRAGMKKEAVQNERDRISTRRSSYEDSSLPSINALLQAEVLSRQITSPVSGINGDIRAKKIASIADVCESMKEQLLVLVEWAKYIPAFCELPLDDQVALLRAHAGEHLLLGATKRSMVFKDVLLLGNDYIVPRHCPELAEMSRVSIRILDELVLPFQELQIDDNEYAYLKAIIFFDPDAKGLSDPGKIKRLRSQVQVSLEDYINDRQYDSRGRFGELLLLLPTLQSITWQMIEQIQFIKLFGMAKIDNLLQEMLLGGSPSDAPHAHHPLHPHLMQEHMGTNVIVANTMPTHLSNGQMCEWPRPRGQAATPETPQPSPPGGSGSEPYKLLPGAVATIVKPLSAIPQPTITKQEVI
# AF4-AF9 inh: inhibitors of AF4 peptide binding to AF9, primary screen, biochemical, AlphaScreen, biotin-AF4 peptide, FLAG-AF9, single point | Protein AF-9 (Homo sapiens), P42568 | inhibition, % at 10 µM | 0.47% of 350,000 active;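 active = every replicate reaching a set inhibition limit, whatever the replicate mean, cut at about 25% in these data; inconclusive = mean inhibition reaches that limit but some replicates miss it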;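 note: 0% = plate neutral control median and 100% = total signal loss; the record names both 10 and 1 µM as test concentration; the first replicate is given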
# UCH37 inh: inhibitors of human UCH37 deubiquitinase, primary screen, biochemical, Ub-AMC cleavage, fluorescence; Ubiquitin carboxyl-terminal hydrolase isozyme L5 (Homo sapiens), Q9Y5K5; purified proteasome/UCH37; inhibition, % (no concentration beside the values); 0.33% of 330,000 active; AID 588478, 2011;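 active = mean of two replicates above 20%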;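 note: 0% = compound-free wells with enzyme and 100% = wells lacking proteasome; stock transfer was 100 nL into about 20 µL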
# Target sequence (Q9Y5K5 whole entry, looked up): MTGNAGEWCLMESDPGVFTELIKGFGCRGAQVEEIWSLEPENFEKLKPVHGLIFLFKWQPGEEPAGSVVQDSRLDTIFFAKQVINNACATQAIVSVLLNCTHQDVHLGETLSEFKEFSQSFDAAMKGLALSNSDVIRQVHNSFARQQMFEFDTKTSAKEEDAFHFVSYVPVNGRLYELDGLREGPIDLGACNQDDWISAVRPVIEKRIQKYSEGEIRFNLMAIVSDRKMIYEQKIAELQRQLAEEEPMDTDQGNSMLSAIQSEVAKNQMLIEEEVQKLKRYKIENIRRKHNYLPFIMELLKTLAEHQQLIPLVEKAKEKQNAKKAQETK
#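 Signal – fluorescence, ex 355 nm, em 460 nm · System – Proteasome-bound UCH37 · Input – 0.15 nM proteasome as dispensed · Timing – 30 min preincubation with enzyme, 25 min cleavage at room temperature · Read-out basis – percent inhibition of cleavage signal versus uninhibited and no-proteasome wells · Medium – Tris-HCl pH 7.4 with ATP-MgCl2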
# Ecoli growth: E. coli growth inhibition, primary screen, OD600; Escherichia coli growth, 23 h; stronger effect = lower value; OD600 absorbance (concentration not given with the values); 0.21% of 330,000 active; AID 1053175, 2014;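 active = OD600 absorbance below the run mean of sample wells minus 3.6 SD, in any replicate, cut at about 0.56 in these data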;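 note: stock transfer was 300 nL into about 60 µL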
# RanGTP-Impb inh: inhibitors of RanGTP-importin-beta interaction, primary screen, biochemical, FRET, CFP-Ran, YFP-importin-beta, homogeneous. Ran GTPase (GTP-bound) - importin-beta complex. cell-free CFP-Ran/YFP-importin-beta FRET ratio. inhibition, % (no concentration beside the values). 1.1% of 300,000 active. AID 2216, 2009;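 active = most replicates above 15%; inconclusive = exactly half above 15%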;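 note: 0% = DMSO wells and 100% = Ran loaded with GDP instead of GTP; wells of about 40 µL received 100 nL stock; the first replicate is given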
# * = called active by the depositor; i = inactive; u = inconclusive; x = no result given; & = joins results of further samples. Only part of the results is shown; count on the stated rates, not on these rows.
SMILES,Vif TR-FRET,FGF22 binding,HNF4A DNA FP,AF4-AF9 inh,UCH37 inh,Ecoli growth,RanGTP-Impb inh
O=c1[nH]cnc2cc(-c3ccc(Br)cc3)sc12,x,i,0.3,2.1,-2.6,0.67,3.4
CCOC(=O)C1=C(C)NC(C)=C(C(=O)OCC)C1c1cccs1,x,x,1.2,x,-32,0.64,6.6
COc1ccc(C2CC=C(C(C)=O)CN2S(=O)(=O)c2ccc(C)cc2)cc1 (stereo not given),x,i,1.0,-1.9,x,x,x
O=C(Nc1cc(N2CCOCC2)ncn1)NC1(C(F)(F)F)Oc2ccccc2O1,23%,x,0.9,x,4.3,0.75,0.3
O=c1c([N+](=O)[O-])c(O)c2ccccc2n1Cc1ccccc1,0%,i,-2.5,-5.5,x,x,-0.7
CC(=O)c1ccc(OCc2cc(C(=O)N(C)Cc3cc(C)no3)no2)cc1,x,i,1.1,-0.2,4.4,0.68,-0.4
COc1ccc(C(=O)CSc2ccc(-c3ccco3)nn2)cc1,x,x,0.0,x,3.1,0.63,2.5
COc1cc(C(=O)Nc2ccccc2C(=O)NCc2cccnc2)cc(OC)c1OC,x,i,-2.0,-5.9,4.6,0.69,1.4
O=C(C[C@H]1C=C[C@H](NC(=O)c2ccccn2)[C@@H](CO)O1)NCc1cc(F)cc(F)c1,x,i,-1.0,1.7&-2.6,x,x,x
C/C(=N\Nc1ccc(S(N)(=O)=O)cc1[N+](=O)[O-])c1cccnc1,x,i,0.4,-3.4,x,x,-2.5
COCCCNC(=O)c1ccccc1Sc1ccc(NC(C)=O)nc1,-8%,x,0.1,-0.5,0.9,0.7,-2.7
CCOC(=O)c1c(C)c(C)n2c1NC(=O)C2,x,i,57*,-9.4,x,x,x
CSc1cccc(NC(=S)N(Cc2ccccc2)Cc2cccnc2)c1,-4%,i,0.7,1.0,3.5,0.71,-3.4
Cc1cc(C)c2nc(N3C(=O)C(O)=C(C(=O)c4ccco4)C3c3cccc(O)c3)sc2c1 (stereo not given),-2%,x,4.3,-0.3,2.3,0.66,x
COc1ccc(S(=O)(=O)NCC(c2ccc3c(c2)OCO3)N2CCN(c3ccccc3)CC2)cc1 (stereo not given),5%,i,3.4,-0.3,4.3,0.71,0.3
CCOC(=O)C1C(=O)CC(C)(O)C(C(=O)OCC)C1c1ccc2c(c1)OCO2 (stereo not given),x,x,-3.0,x,0.3,0.68,4.3
O=Cc1c[nH]c2cccc(OCc3ccccc3)c12,-10%,i,2.7,4.1,-5.5,0.61,x
O=C(c1cn(-c2ccccc2)nc1-c1cccc(Br)c1)N1CCOCC1,-5%,i,-0.1,1.6,2.3,0.64,-0.4
Cn1c(=N)n(CC(O)c2cccs2)c2ccccc21 (stereo not given),8%,i,-0.1,-5.4,2.4,0.7,-4.6
COc1ccc(NC(=O)COC(=O)C2COc3ccccc3O2)cc1 (stereo not given),-3%,i,4.1,-0.6,x,x,x
CCCCn1c(SCC(=O)Nc2nccs2)nc2ccccc2c1=O,-1%,x,2.7,x,2.0,0.71,u
C=CCS/C(N)=N\N=C\c1c(O)ccc2ccccc12,6%,i,3.0,-2.1,x,x,7.2
CCn1c(SCc2ccc(Cl)c(Cl)c2)nnc1C(C)NC(=O)c1ccc(OC)cc1 (stereo not given),8%,i,-3.8,3.9,0.3,0.71,2.5
COc1cc(Cl)c(C)cc1NC(C)C(=O)Nc1cc(C(F)(F)F)ccc1N1CCOCC1 (stereo not given),18%,x,-0.8,x,1.5,0.72,2.3
CC(=O)Nc1cccc(C(=O)/C=C/c2ccc(N(C)C)cc2)c1,2%,i,83*,-5.6,-3.8,0.66,-67
O=C(Cc1ccc(Cl)cc1)Nc1ccc(Br)cn1,-6%,i,-1.6,-4.5,1.8,0.66,5.8
COCCN(CCOC)C(=O)C1CCCN(S(=O)(=O)c2ccc(NC(=O)OC)cc2)C1 (stereo not given),-3%,i,2.7,12,1.1,0.68,-2.4
O=C(NNC(=O)c1cc2ccccc2o1)c1ccc(Cl)cc1,2%,i,-2.8,-3.9,-1.0,0.68,-0.7
CC(C)[C@@H](N)C(=O)N/N=C/c1ccc2nccnc2c1,-8%,i,1.0,-7.7,x,x,4.2
COc1cccc2cc(-c3cn4ccc(C)cc4n3)c(=O)oc12,-12%,i,-1.2,-48,-8.0,0.67,1.9
Cn1cc(Br)c(C(=O)Nc2ncc(Br)s2)n1,x,i,1.5,-3.6,-6.0,0.68,0.2
NS(=O)(=O)c1ccc(CCNC(=O)C(=O)NCC2OCCN2S(=O)(=O)c2cccs2)cc1 (stereo not given),x,i,4.2,-2.7,-0.2,0.67,5.6
CNC(=O)c1cccc(N2CCCC2=O)c1,6%,x,0.7,x,-1.3,0.73,-3.3
Cc1cccc(N2CCN(C(=O)c3ccc(CNc4c(N5CCC(C)CC5)c(=O)c4=O)cc3)CC2)c1C,4%,x,1.3,-2.2,1.1,0.71,-1.0
Cc1c(C(C)C)c(=O)n(-c2ccc(S(=O)(=O)NC3CC3)cc2)n1C,3%,x,-0.5,-1.8,0.0,0.66,0.3
Cc1c(Cc2ccc3c(c2)OCO3)sc(NC(=O)c2cccc3ccccc23)c1C(N)=O,-8%,i,1.2,-2.6,-6.9,0.75,-1.3
COc1ccc(Cl)cc1NC(=O)Nc1ccccc1C(N)=O,x,i,-1.4,-7.4,-1.3,0.73,3.6
Cc1cccc(OCCCn2c(=O)oc3ccc(C)cc32)c1,4%,i,2.7,0.3,-1.4,0.69,u
CN(CC(=O)NC1CCCCCCC1)S(=O)(=O)c1cnc[nH]1,-12%,i,-3.2,-2.6,4.1,0.66,-0.3
COCCNC(=O)COc1ccc(Oc2ccccc2)cc1,-3%,x,-2.4,x,1.2,0.71,1.8
COc1ccc(C2c3c(ccc4ccccc34)Oc3ncn4nc(-c5ccco5)nc4c32)cc1OC (stereo not given),x,x,-4.0,x,-8.0,0.65,2.0
CC(SC1=NCCN1S(=O)(=O)c1ccccc1)c1ccccc1 (stereo not given),x,i,-0.1,-2.5,1.4,0.7,1.0
O=C(CS(=O)(=O)Cc1ccccc1)NCc1ccccc1Cl,6%,i,-0.8,-16,1.4,0.66,5.5
CCOC(=O)C1C(c2ccc(O)c(OCC)c2)NC(=S)NC1(O)C(F)(F)F (stereo not given),6%,x,-0.3,x,1.1,0.69,-0.9
CCCOc1ccc(C(CC(=O)O)NC(=O)c2cccs2)cc1 (stereo not given),29%,x,2.0,x,1.3,0.63,u
Cn1c(=O)c2[nH]c(N3CCCCC3)nc2n(C)c1=O,5%,i,-1.1,-21,2.7,0.66,0.5
COc1cccc(CNC(=O)Cn2nc(C)c3c(C)n(-c4ccc(C)cc4)nc3c2=O)c1OC,0%,i,5.0,-0.2,1.5,0.68,2.1
CCc1nc(C)cn1S(=O)(=O)c1cc([N+](=O)[O-])ccc1Cl,-4%,i,-0.4,-2.1,3.4,0.71,u
CC(=O)N1c2ccc(S(=O)(=O)N3CCC(C(=O)N4CCN(c5ccc(Cl)cc5)CC4)CC3)cc2CC1C (stereo not given),x,i,-5.1,1.4,1.1,0.68,-2.3
CC(Cl)C(=O)Nc1ncc(C(F)(F)F)cc1Cl (stereo not given),-5%,x,2.2,x,-5.1,0.7,-6.4
Cc1ccc(SCC(=O)N2CCN(S(=O)(=O)c3cccs3)CC2)cc1,3%,i,3.5,-1.4,5.5,0.73,x
Cc1c(NC(=O)OCc2ccccc2)c(=O)n(-c2ccccc2)n1C,2%,i,5.4,-10.0,1.3,0.77,-1.7
CC1CC2(C)Oc3ccccc3C3OCC1(CO)C(C)C32 (stereo not given),-1%,x,-2.8,x,1.7,0.73,4.8
O=S(=O)(c1cccc(-c2n[nH]c(=S)n2-c2ccccc2Cl)c1)N1CCOCC1,-9%,i,1.4,-7.3,-0.7,0.69,x
Cc1cccc(C2Nc3ccccc3C(=O)N2CCc2ccccc2)n1 (stereo not given),3%,x,-1.4,-20,-269,0.7,0.3
COc1ccccc1-c1cc(C(=O)Nc2c(C)n(C)n(-c3ccccc3)c2=O)no1,10%,i,2.6,-13,2.3,0.71,-2.9
O=C(C=Cc1cccc(O)c1)c1ccccc1O,-10%,i,-2.4,9.8,6.8,0.62,x
O=C(O)c1ccc(-n2cc(C(=O)c3ccccc3O)cn2)cc1,6%,x,0.8,0.8,2.7,0.67,3.9
Cc1cc(/C=C(\C#N)C(=O)Nc2ccc(F)cc2)c(C)n1-c1ccc(N2CCOCC2)c([N+](=O)[O-])c1,-4%,x,4.2,x,7.4,0.76,u
O=C(CSC1CC(=O)N(c2ccc(C(=O)O)cc2)C1=O)Nc1ccc2ccccc2c1 (stereo not given),x,i,1.3,-4.4,3.6,0.74,-1.5

# Arranged by value in RanGTP-Impb inh (largest number first): some entries from above.
mol,RanGTP-Impb inh
CC1CC2(C)Oc3ccccc3C3OCC1(CO)C(C)C32 (stereo not given),4.8
Cc1cccc(C2Nc3ccccc3C(=O)N2CCc2ccccc2)n1 (stereo not given),0.3
CNC(=O)c1cccc(N2CCCC2=O)c1,-3.3

# Additional records.
SMILES,Vif TR-FRET,FGF22 binding,HNF4A DNA FP,AF4-AF9 inh,UCH37 inh,Ecoli growth,RanGTP-Impb inh
COc1cccc(/C=C2/SC(=S)N(CCCC(=O)Nc3ccc(O)cc3)C2=O)c1,-9%,i,3.0,3.5,4.6,0.72,-2.8
O=C1CC2(CCCC2)Oc2ccc(Cl)cc21,x,i,0.1,-0.1,-15,0.67,-0.9
COc1cccc(-c2cc(C(=O)O)[nH]n2)c1,-4%,x,-0.3,x,13,0.68,2.3
Cc1ccc(C)c(NC(CC(=O)c2ccccc2)C(=O)OCC(=O)c2cccs2)c1 (stereo not given),x,i,-1.6,4.7,6.4,0.67,6.6
O=C(NC1CCCC1)c1ccc(COc2ccccc2Br)o1,-3%,i,7.4,-1.3,0.1,0.64,-2.4
CCC1CCCCN1Cc1c(O)ccc2c(=O)c(-c3ccccc3OC)coc12 (stereo not given),x,i,0.3,29*,-455,0.62,1.7
CC(C(=O)Nc1ccc2c(c1)OCCO2)N1Cc2ccccc2C1=O (stereo not given),8%,i,-1.2,-0.2,0.9,0.63,u
CC1CCCCC12NC(=O)N(CC(=O)Nc1ccc3[nH]c(=O)[nH]c3c1)C2=O (stereo not given),0%,x,-0.3,-10,4.4,0.69,-0.1
Cc1cc(C)c(OCCOCCN2CCCC2)c(C)c1,x,i,2.2,0.4,1.2,0.65,2.4
COc1cccc(NC(=O)CN(C)C(=O)c2c(C)nn(CC(C)C)c2Cl)c1,-5%,i,-0.5,1.0,1.5,0.72,x

# Look-ups from above:
# In AF4-AF9 inh, O=S(=O)(c1cccc(-c2n[nH]c(=S)n2-c2ccccc2Cl)c1)N1CCOCC1 reads -7.3
# In AF4-AF9 inh, CC(=O)Nc1cccc(C(=O)/C=C/c2ccc(N(C)C)cc2)c1 reads -5.6
# In UCH37 inh, Cc1cccc(N2CCN(C(=O)c3ccc(CNc4c(N5CCC(C)CC5)c(=O)c4=O)cc3)CC2)c1C reads 1.1
# In Ecoli growth, Cn1c(=O)c2[nH]c(N3CCCCC3)nc2n(C)c1=O reads 0.66
# In HNF4A DNA FP, O=C(Cc1ccc(Cl)cc1)Nc1ccc(Br)cn1 reads -1.6
